Assay outcomes (PubChem)
Calb biofilm kill = clotrimazole potentiators killing C. albicans biofilm, primary screen, 4-compound mixtures; C. albicans biofilm persisters + clotrimazole, fluorescence viability; primary screen in compound mixtures of four per well; inhibition, % at 7.6 µM; actives 0.02% (n = 120,000); AID 1242, 2008;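 active = inhibition above 30.3% in the primary screen of four-compound pools, then above 30% when the compound was retested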;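 note: compounds exposed to preformed 24 h biofilms for 48 h; the number belongs to the whole pool; some results filed as inactive read as strong as hits; inactives centre near 12; 0% = biofilm with clotrimazole alone and 100% = kill control; retested singly at about 60 µM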
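Test system: C. albicans CAF4-2 wild-type biofilms; buffer or medium: RPMI/MOPS medium, pH 7.0; schedule: 24 h biofilm formation, then 48 h compound exposure, 37 °C; detection: Alamar Blue fluorescence; measure: percent inhibition of biofilm viability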
* = called active by the depositor.

Compound,Calb biofilm kill
O=C(O)Cc1c[nH]c2cccc(O)c12,14
COc1ccc(CCNC(=O)Cn2cc(C(F)(F)F)cc(Cl)c2=O)cc1,22
CC(=O)N1N=C(c2ccco2)CC1c1ccc(C)cc1 (stereo not drawn),14
CC(=O)N1CCN(c2ccc(S(C)(=O)=O)cc2[N+](=O)[O-])CC1,16
COc1ccc(-n2c(SCc3ccc([N+](=O)[O-])cc3)nnc2-c2ccc(C)cc2)cc1,-1
Fc1ccccc1COc1ccc(/C=N/NC(=S)NCc2ccccc2)cc1,2
Oc1ccc(NCc2ccccc2OCc2ccccc2)cc1,5
CCOC(=O)N1CCN(C(=O)CCC2CCCC2)CC1,24
O=C(COC(=O)c1cnccn1)c1ccc(Cl)c([N+](=O)[O-])c1,5
CCOC(=O)COc1cc(N)c(Cl)cc1Cl,10
NC(=O)C1CCCNC1 (stereo not drawn),13
CCN(c1ccccc1)S(=O)(=O)c1ccc(OC)c(NC(=O)CNCCc2ccccc2)c1,6
Cc1ccc([N+](=O)[O-])cc1S(=O)(=O)Nc1ccccn1,20
O=[N+]([O-])c1ccc(/C=N/NC2=NS(=O)(=O)c3ccccc32)cc1,-2
CC1CCCC(NC(=S)NC(=O)c2cncc(Br)c2)C1C (stereo not drawn),4
Cc1ccc(OCC(=O)N/N=C/c2cn(Cc3ccccc3)c3ccccc23)cc1,16
O=C(CCC1CCCCC1)NCCN1C2=NC[C@@H](Cc3ccccc3)N2C[C@H]1Cc1ccc(O)cc1,20
CC1CCCCC12NC(=O)N(CC(=O)Nc1ccccc1-c1ccccc1)C2=O (stereo not drawn),-3
O=C(Cc1cccc2ccccc12)N/N=C/c1ccc(OC(=O)/C=C/c2ccco2)cc1,18
O=C(NC1CCCC1)C(c1cccnc1)N(C(=O)c1csnn1)C1CCCC1 (stereo not drawn),12
CC(C)(C)C(=O)N1CCC[C@@]1(CO)C(=O)O,20
COC(=O)[C@@H](Cc1c[nH]c2ccccc12)NC(=O)c1cc(=O)[nH]c2ccccc12,6
COc1ccc(C(=O)NNC2=C(C(=O)C(F)(F)F)CCC2)cc1,25
CC(C)(C)NC(=O)Nc1ccc(Br)cc1,-7
CCOC(=O)C(=O)c1c(-c2ccc(C)cc2)nc2ccccn12,15
CCSc1ccc2cc(OC)ccc2[n+]1CC,15
CCOC(=O)c1c(NC(=O)COC(=O)c2ccncc2)sc(C)c1C,12
Cc1ccc(CC(=O)NCc2ccc(Cl)cc2)cc1,4
O=C(CSc1nc2ccccc2c(=O)n1CCCN1CCOCC1)Nc1cccc(S(=O)(=O)N2CCCCCC2)c1,13
CCNC(=O)CC1C(=O)N(c2ccc(F)cc2)C(=O)N1CCc1sccc1C (stereo not drawn),0
O=C(NC(=S)N1CCN(C2CCCCC2)CC1)c1ccccc1,7
Cc1ncc([N+](=O)[O-])n1CCOC(=O)c1ccccc1,13
Cc1ccc(C)c(-n2cc(CNC(C)Cn3cncn3)c(-c3ccccc3)n2)c1 (stereo not drawn),29
COC(=O)CN1C(=O)N/C(=C/c2cc(Cl)c(OC)c(OC)c2)C1=O,26
CN1CCN(C(=O)c2cc(COc3ccc(F)cc3Cl)on2)CC1c1ccccc1 (stereo not drawn),10
O=S(=O)(c1ccccc1)N1CCN(c2ccnc3cc(Cl)ccc23)CC1,12
O=c1[nH]c(-c2ccc(F)cc2)nc2c1sc(=S)n2-c1ccccc1,24
COCCOC(=O)c1c(C)oc2cc(Br)c(OCC(N)=O)cc12,14
Cc1ccc(OCC(=O)N2CCN(S(=O)(=O)c3ccc(Cl)cc3)CC2)c([N+](=O)[O-])n1,11
Cc1cc(C)cc(NC(=O)C(c2ccccc2)N2CCCC2)c1 (stereo not drawn),5
CN(C)c1ccc(/C=N/n2c(-c3ccccc3Br)n[nH]c2=S)cc1,7
CCN(CC)S(=O)(=O)c1ccc(C(=O)OCn2c(SC)nnc(C)c2=O)cc1,7
COc1ccc(/C=C/C(=O)NCCc2ccc(OC)c(OC)c2)cc1,17
O=C(COC(=O)C1CC1)Nc1ccc2[nH]c(=O)[nH]c2c1,11
O=S(=O)(NC1=NCCCCC1)c1ccc(Cl)cc1,8
Clc1ccc(CNC23CN4CN(CN(C4)C2)C3)c(Cl)c1,14
Cc1ccc(N(CC(=O)N/N=C/c2cccnc2)S(=O)(=O)c2ccccc2)cc1,-6
CC(C)Sc1nc2c(c(=O)[nH]c(=O)n2C)n1CC(O)COc1ccccc1 (stereo not drawn),21
COc1ccc(-c2cc(-c3cccnc3)c(C#N)c(N)n2)cc1,20
CCN(Cc1ccccc1)C(=O)Cn1c(=O)oc2ccccc21,3

(further entries)
Compound,Calb biofilm kill
CCN(CC)C(=O)CSc1nc(N)c(C#N)c(-c2cccs2)c1C#N,7
CCCC12CN3CCN(CC(C3)/C1=N\NC(=O)c1ccccc1Cl)C2,4
CSCCC(NS(=O)(=O)c1ccc2c(c1)c(=O)n(C)c(=O)n2C)C(=O)NC1CCN(Cc2ccccc2)CC1 (stereo not drawn),13
Cc1cc(C)cc(NC(=O)C(=O)NCCCN2CCOCC2)c1,8
COc1ccc(NC(=O)CN(Cc2ccccc2)S(C)(=O)=O)cc1OC,4
CCc1ccccc1NS(=O)(=O)c1ccc2c(c1)NC(=O)CC(=O)N2,4
CC1CC(OCC(O)CN2CCOCC2)CC(C)(C)C1 (stereo not drawn),16
COCCn1nnnc1CN1CCC(C)CC1,8
CC(/C=N/NC(=O)CN1CCN(Cc2ccc(Cl)cc2)CC1)=C\c1ccco1,14
C#CCNC(=O)C1=C[C@H](c2ccc(Br)cc2)C[C@H](OCc2ccc(CO)cc2)O1,11
CCN(CC)CCSc1nc(O)c(Cc2ccccc2)c(=O)n1-c1ccccc1,8
COc1ccc(N2C(=O)CC(Sc3n[nH]c(-c4ccccc4)n3)C2=O)cc1 (stereo not drawn),-1
C/C(CCC1CC(C)OC1=O)=N\NC(N)=S (stereo not drawn),9
Cc1ccccc1NC(=S)N1CCN(Cc2ccccc2)CC1,11
COc1ccc(S(=O)(=O)N(C)CC(=O)Nc2ccc(C(N)=O)cc2)cc1OC,25
CCN(CC)S(=O)(=O)c1cccc(-c2nnc(SCC(=O)NC)n2N)c1,11
N#Cc1c(NC(=O)C2CC(c3c(F)cccc3Cl)=NO2)sc2c1CCC2 (stereo not drawn),9
Cc1cc(F)ccc1S(=O)(=O)N1CCCOC1CNC(=O)C(=O)NCCc1c[nH]c2ccccc12 (stereo not drawn),7
CCOc1cccc(NC(=O)c2ccc(S(=O)(=O)N3CCCC3)cc2)c1,17
Cc1ccc(C2C(C(=O)c3cccs3)=C(O)C(=O)N2c2ccc(S(N)(=O)=O)cc2)cc1 (stereo not drawn),3
O=C1CN(CC(=O)Nc2cccc(Cl)c2Cl)c2ccccc2N1,24
COc1ccc(OC)c(/C=N/NC(=O)C(=O)NCc2cccnc2)c1,10
CCN(CC)c1ccc(NC(=O)c2ccccc2OCC(=O)OC)cc1,16
COc1ccccc1NC(=O)Nc1ccc(CC#N)cc1,12
Cc1c(C(=O)C(=O)N2CC=C(c3ccccc3)CC2)c2ccccc2n1C,4
CCNC(=S)NCc1ccc(F)cc1,13
CC(=O)N/C(=C/c1ccc2c(c1)OCO2)C(=O)NCc1ccccc1,13
CNC(=O)CSc1nnc(COc2ccc([N+](=O)[O-])cc2)n1C,22
Brc1cc(/C=N/n2cnnc2)oc1Br,2
CCC1=C(OC(=O)N(CC)CC)N2C(=O)OC(=NCC3CC3)[C@]2(Cc2ccccc2)[C@H]2C1=CC[C@H]1C(=O)N(C)C(=O)[C@H]12,17
O=C(N/N=C/c1ccco1)C1CC1(c1ccccc1)c1ccccc1 (stereo not drawn),16
O=C(O)C1Nc2c(O)cc(Cl)c([N+](=O)[O-])c2C2C=CCC12 (stereo not drawn),10
CC(CN1CCCCC1)NC(=O)c1cc(-c2ccccn2)nc2ccc(Cl)cc12 (stereo not drawn),14
CC(C)(C)NNC(=S)Nc1ccc(S(=O)(=O)N2CCOCC2)cc1,11
CC(C)(C)c1[nH]ncc1[N+](=O)[O-],19
COc1ccc(N(CC(=O)Nc2ccccc2C(=O)N2CCOCC2)S(=O)(=O)c2ccc(F)cc2)cc1,1
COc1ccc(-c2csc(NC(=O)CCS(=O)(=O)c3ccccc3)n2)c(OC)c1,21
CCOC(=O)c1ccc[n+](C(C)C(=O)c2ccc(-c3ccccc3)cc2)c1 (stereo not drawn),14
Cc1cc(C)cc(-n2ccnc2SCC(=O)O)c1,-7
COc1ccccc1NC(=S)N(Cc1ccc(Cl)cc1)CC1CCC(C(=O)O)CC1 (stereo not drawn),17
O=C(Nc1ccccc1)C1=C[C@@H](c2ccc(Br)cc2)C[C@@H](OCc2ccc(CO)cc2)O1,21
C=CCc1ccc(OCC(O)CN2CCN(Cc3ccc(Cl)cc3)CC2)c(OC)c1 (stereo not drawn),10
OCCNCCCCOc1cccc(Br)c1,16
O=C(COc1ccc([N+](=O)[O-])cc1)Nc1ccc2c(c1)OCO2,12
Cc1ccc(C(=O)NNC(=O)CCCN2C(=O)/C(=C/c3ccccc3Cl)SC2=S)cc1,5
O=C1/C(=C/c2cccnc2)CCC/C1=C\c1cccnc1,7
Cc1cc(C)nc(SCC(=O)N(C)C)n1,-1
COc1ccc(-c2c[n+]3c(n2-c2ccccc2)SCC3)cc1OC,2
COc1cc(NS(=O)(=O)c2ccc(NC(=S)NC(=O)c3cccs3)cc2)nc(OC)n1,20
Cc1ccc(C(=O)c2sc(Nc3ccccc3)c(C#N)c2N)cc1,7

3 neighbouring records out of the list so far, quoted:
Compound,Calb biofilm kill
COc1ccc(-c2c[n+]3c(n2-c2ccccc2)SCC3)cc1OC,2
COc1cc(NS(=O)(=O)c2ccc(NC(=S)NC(=O)c3cccs3)cc2)nc(OC)n1,20
Cc1ccc(C(=O)c2sc(Nc3ccccc3)c(C#N)c2N)cc1,7

Next results
Compound,Calb biofilm kill
COc1ccc(N2CCN(Cc3nc4scc(-c5ccccc5)c4c(=O)[nH]3)CC2)cc1,10
CCN(CC)C(=O)Cn1cc(S(=O)(=O)CC(=O)Nc2ccc3c(c2)OCCO3)c2ccccc21,16
CC1(C)Cc2c(C#N)c(NCCO)nc(-c3ccco3)c2CO1,19
O=C(Nc1ncc(Cc2ccccc2)s1)C1=NCCN1,16
CC12C=CC(=O)C=C1CCC1C3CCC(O)(C(=O)CO)C3(C)CC3OC312 (stereo not drawn),21
O=C(N/N=C/c1ccncc1)C1C2CCCCCCC21 (stereo not drawn),4
COc1ccc2c(c1)[nH]c1c(=O)n(/N=C/c3ccc(OC)c(CN4CCCC4)c3)cnc12,18
N#Cc1c(-c2ccccc2)nc(SCC(=O)N2c3ccccc3Sc3ccccc32)[nH]c1=O,34
CS(=O)(=O)N(CC(=O)NCC1CCCO1)c1cccc(Cl)c1 (stereo not drawn),-4
O=C(NCCn1cc(SCC(=O)N2CCOCC2)c2ccccc21)c1c(F)cccc1F,22
O=C(N/N=C(/c1ccccc1)c1ccncc1)c1ccc2c(c1)OCO2,17
O=C(C1=C[C@@H](C2CC2)C[C@@H](OCCCCO)O1)N1CCOCC1,17
COc1cc([N+](=O)[O-])ccc1NC(=S)NCc1ccccn1,18
Cc1ccc(O)c(C(=O)c2cnc3c(c2)c(C)nn3-c2ccccc2)c1,6
CCc1ccccc1NC(=O)CN(C)C(=O)Cn1cc(C(F)(F)F)cc(Cl)c1=O,9
COc1cccc(C(=O)NNC(=O)CCC(=O)O)c1,22
O=C(COC(=O)/C=C/c1ccc2c(c1)OCO2)Nc1ccccc1,10
CCN(CC)S(=O)(=O)c1ccc(NC(=O)c2ccc(Sc3nncn3C)c([N+](=O)[O-])c2)cc1,10
COc1cc(Cl)ccc1NC(=S)N(CCN(C)C)C(C)c1ccncc1 (stereo not drawn),18
Cc1ccc(C2N3CC4([N+](=O)[O-])CN2CC([N+](=O)[O-])(C3)C4(C)C)cc1 (stereo not drawn),15
O=C(O)c1cn(C2CCCCC2)c2ccccc2c1=O,17
CCCOc1ccc(NC(=O)CC2C(=O)N(C)C(=S)N2Cc2ccc3c(c2)OCO3)cc1 (stereo not drawn),15
O=S1(=O)C=CC(c2ccccc2)C1 (stereo not drawn),28
CCN1CCc2c(OCc3ccccc3)cccc2C1=O,7
COc1ccc(C(C)=O)cc1COc1ccc(Cl)cc1Cl,8

Part of the list above, as labelled records.
O=C(N/N=C/c1ccco1)C1CC1(c1ccccc1)c1ccccc1 (stereo not drawn)
  Calb biofilm kill: 16
N#Cc1c(NC(=O)C2CC(c3c(F)cccc3Cl)=NO2)sc2c1CCC2 (stereo not drawn)
  Calb biofilm kill: 9
Cc1cc(F)ccc1S(=O)(=O)N1CCCOC1CNC(=O)C(=O)NCCc1c[nH]c2ccccc12 (stereo not drawn)
  Calb biofilm kill: 7
O=C(O)c1cn(C2CCCCC2)c2ccccc2c1=O
  Calb biofilm kill: 17

(list continues)
Compound,Calb biofilm kill
O=C(O)CCCCCCNC(=O)c1cncc(O)c1,20
CC(OC(=O)c1ccc(Cl)nc1)C(=O)NC(C)(C)C (stereo not drawn),11
OCC1CCCN(c2ncnc3scc(-c4ccccc4)c23)C1 (stereo not drawn),35
CC(C)CC(NC(N)=O)C(=O)OCC(=O)Nc1ccc(SC(F)F)cc1 (stereo not drawn),14

An excerpt; count on the stated rates, not on these rows.
